FXIa inh – inhibitors of human coagulation factor XIa; P03951; purified human FXIa, fluorogenic AMC substrate cleavage; inhibition, % at 10 µM; actives 0.3% (n = 33,000);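 active = inhibition above 40% in the primary screen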;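 note: 0% = enzyme without compound and 100% = blank wells lacking enzyme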
* hit, by the source's call.

FXIa inh	mol
-2	O=C(Nc1nc(-c2ccccn2)cs1)c1ccc(Br)s1
-2	COC(=O)c1cnn(C(=O)c2ccccc2Br)c1N
15	CCn1c(CNC(=O)Cc2ccc(OC)cc2)nnc1SCCOc1ccccc1
2	CCn1c(=O)c2c3c(sc2n2cnnc12)CCC3
1	Clc1cccc(CNc2nnnn2-c2ccccc2)c1
-2	Cc1sc(NC(=S)NC(=O)c2ccc(C(C)(C)C)cc2)c(C#N)c1C
-1	COc1ccc(C(=O)n2nc(-c3ccc(Cl)cc3)nc2N)cc1OC
3	COc1ccc(C(=O)n2nc(-c3ccc(C)cc3)nc2N)cc1OC
-1	COc1ccc(C(=O)n2nc(C)cc2C)cc1OC
-1	CCOC(=O)C1=C(C)Nc2nnnn2C1c1cccnc1 (stereo not given)
-11	O=C(Nc1nc(-c2ccccn2)cs1)c1ncc(Cl)c(Cl)c1Cl
3	C=CCN(C(=O)Nc1ccc2oc(C)nc2c1)c1ccccc1
24	Cn1c(=O)c2c3c(sc2n2cnnc12)CCC3
4	COC(=O)C1=C(C)Nc2nnnn2C1c1cccnc1 (stereo not given)

Four compounds from above, arranged by the value under FXIa inh, largest number first.
FXIa inh	mol
24	Cn1c(=O)c2c3c(sc2n2cnnc12)CCC3
3	COc1ccc(C(=O)n2nc(-c3ccc(C)cc3)nc2N)cc1OC
1	Clc1cccc(CNc2nnnn2-c2ccccc2)c1
-2	COC(=O)c1cnn(C(=O)c2ccccc2Br)c1N

Individual results from the entries so far.
COC(=O)C1=C(C)Nc2nnnn2C1c1cccnc1 (stereo not given) @ FXIa inh: 4
C=CCN(C(=O)Nc1ccc2oc(C)nc2c1)c1ccccc1 @ FXIa inh: 3

Only part of the results is shown, and most or all hits are left out here.
